Source: PubChem (National Center for Advancing Translational Sciences (NCATS))
TSHR ag: qHTS Assay for Agonists of the Thyroid Stimulating Hormone Receptor | Thyrotropin receptor (Homo sapiens), P16473 | HEK293-CNG-TSHR cells (CNG channel as cAMP sensor), membrane potential dye, cAMP | Potency, µM (series often up to 57.1 µM), without a hit: at the highest dose activation, actives largely listed as activators | hit rate 0.48% among 73,000 | AID 926, 2007; active = well fitted activation curve of enough size with the parental cells flat; inconclusive = any curve in the parental cells; inactive = parental cells flat and receptor cells flat or falling; note: potency is the fitted concentration of half-maximal effect; % of control where 0% means no effect; weak receptor curves with flat parental cells got no call and are not listed
Target sequence (P16473 whole entry, looked up): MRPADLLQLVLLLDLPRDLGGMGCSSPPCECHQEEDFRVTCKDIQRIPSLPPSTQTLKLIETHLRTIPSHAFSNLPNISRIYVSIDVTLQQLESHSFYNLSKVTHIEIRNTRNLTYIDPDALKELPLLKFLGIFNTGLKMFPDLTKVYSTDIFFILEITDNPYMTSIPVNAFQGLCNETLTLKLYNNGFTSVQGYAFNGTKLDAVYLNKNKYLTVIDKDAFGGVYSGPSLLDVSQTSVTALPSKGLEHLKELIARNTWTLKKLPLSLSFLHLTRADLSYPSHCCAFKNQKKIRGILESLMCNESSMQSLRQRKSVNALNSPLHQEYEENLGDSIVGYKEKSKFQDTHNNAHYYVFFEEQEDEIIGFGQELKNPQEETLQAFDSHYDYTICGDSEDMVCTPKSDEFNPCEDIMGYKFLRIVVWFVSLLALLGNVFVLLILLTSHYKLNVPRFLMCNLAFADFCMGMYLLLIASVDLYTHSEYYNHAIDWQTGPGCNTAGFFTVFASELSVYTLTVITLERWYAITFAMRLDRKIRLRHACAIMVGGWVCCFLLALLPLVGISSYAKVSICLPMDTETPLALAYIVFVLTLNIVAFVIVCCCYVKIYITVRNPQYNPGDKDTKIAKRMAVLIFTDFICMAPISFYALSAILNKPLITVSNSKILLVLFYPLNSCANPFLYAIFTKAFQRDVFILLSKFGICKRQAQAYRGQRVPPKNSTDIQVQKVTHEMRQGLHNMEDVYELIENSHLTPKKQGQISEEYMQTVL
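HEK 293 cells stably expressing TSHR and a cAMP-gated CNG channel; parental CNG-only cells as counterscreen. Cells preloaded 60 min with membrane potential dye plus 100 uM RO 20-1724, then compound 30 min; fluorescence read at 590 nm.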
Resorufin fluor: qHTS Assay for Spectroscopic Profiling in Resorufin Spectral Region; hit rate 0.04% among 59,000; max dye-equivalent concentration, M; Compound fluorescence, resorufin region 547/598 nm, buffer; hits give high values; active = above 10 nM dye equivalent; inconclusive = 1 to 10 nM; inactive = 1 nM or less; a few of its hits are not listed in these tables; note: highest value over a series up to 38 µM
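Dye-equivalent concentration values derive from comparing each well's 547/598 nm fluorescence against resorufin standards included on every plate. Incubation was 15 min at room temperature in 100 mM Tris, pH 8.0.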
A647 fluor: qHTS Assay for Spectroscopic Profiling in A647 Spectral Region; Compound fluorescence, A647 channel (570/671 nm), Tris buffer; max dye-equivalent concentration, M; 59,000 tested, under 10 active; active means above 1 µM dye equivalent; inconclusive means 0.1 to 1 µM; inactive means 0.1 µM or less;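 note: values scaled relative to a standard on each plate; highest value over a series up to 38 µM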
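Spectral profiling of library compounds in pH 8.0 Tris: 15 min room-temperature incubation, single ex/em pair (570/671 nm), response normalized to Alexa 647 equivalents.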
A488 fluor: qHTS Assay for Spectroscopic Profiling in A488 Spectral Region | compound autofluorescence, A488 spectral region, dye equivalency; hits give high values | max dye equivalency, M | hit rate 0.1% among 59,000 | AID 591, 2007; active = above 10 nM dye equivalent; inconclusive = 1 to 10 nM; inactive = 1 nM or less; about half of its hits are not listed in these tables;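 note: highest value over a series up to 38 µM; compound alone in buffer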
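Readout is A488 dye-equivalent concentration, calibrated by a per-plate six-point Alexa 488 series. Compounds in 100 mM Tris buffer pH 8.0 were incubated 15 min at room temperature. Plates were imaged using 480 nm excitation/540 nm emission filters.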
AID923: qHTS Assay for Allosteric/Competitive Inhibitors of Caspase-1: Spectroscopic Profiling in AFC Spectral Region; hit rate 1.1% among 75,000; Potency, µM (highest dose often 57.5 µM), without a hit: top-dose fluorescence increase, actives largely listed as activators; compound fluorescence, AFC spectral region (405/520 nm); almost no hit is shown here; active = well fitted activation curve with a large enough effect; inconclusive = small, poorly fitted or top-dose-only effect;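 note: potency is the fitted concentration of half-maximal effect; 0% is about no effect; scaled to a free AFC standard on each plate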
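Baseline compound fluorescence (AFC region, 405 nm ex/520 nm em) taken from the intercept of kinetic reads with 50 nM caspase-1 and 5 uM Ac-WEHD-AFC; normalized to an on-plate AFC standard curve; compounds titrated up to 57 uM.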
Numbers without * were called inactive; i = inactive; ? = inconclusive; / = no result given; [ ] = dose if it differs, or a comment.

mol	TSHR ag	Resorufin fluor	A647 fluor	A488 fluor	AID923
Cc1cc(C)c(S(=O)(=O)n2nc(C)c(Br)c2C)c(C)c1	21%	i	3.4e-09	i	1.7%
O=C(Nc1ccc(F)c(Cl)c1)c1ccc2c(=O)n3c(nc2c1)CCCCC3	?	i	1.5e-08	i	1.6%
CCCCCc1nc2c(=O)n(C)c3ccccc3c2o1	?	i	2.2e-09	i	0.3%
CCC(C)N(C)Cc1cccc(C2(O)CCN(S(=O)(=O)c3ccc(F)cc3)CC2)c1 (centres undefined)	-6%	i	9.2e-09	i	-1.3%
CCN(CC(=O)NC1CCS(=O)(=O)C1)C(=O)COc1ccccc1-c1ccccc1 (centres undefined)	1%	i	4.9e-08	i	-1.3%
NC(N)=NCCSSCCN=C(N)N	/	i	3.3e-08	i	/
COc1ccc(C(=O)CSc2nnnn2Cc2ccccc2)cc1	16%	i	1e-09	i	1.4%
c1coc(Cn2c(-c3ccco3)nc3ccccc32)c1	?	i	5.1e-09	i	3.3%
Cc1nc(SCC(=O)Nc2cc(C)on2)c2c(C)c(C)sc2n1	8%	i	1.7e-08	i	0.9%
O=C(O)CSc1cccc2cccc(C(=O)O)c12	6%	/	/	/	-1.1%
CC1(C)Cc2c(C#N)c(N3CCN(C(=O)c4ccccc4)CC3)nc(-c3ccco3)c2CS1	/	i	3.1e-09	i	/
COc1ccc(CCC(=O)N2CCc3ccccc32)cc1	5%	i	5.4e-09	i	-1.1%
COc1ccc(-c2nc(CNS(=O)(=O)c3cc(OC)ccc3OC)cs2)cc1	11%	/	/	/	-0.8%
O=C(Cn1nnc(-c2ccccc2F)n1)Nc1ccc(S(=O)(=O)NC2CCCC2)cc1	-10%	i	1e-09	i	-1.0%
CCCOC(=O)c1ccc(OCC(O)CN2C(=O)NC(C)(C)C2=O)cc1 (centres undefined)	7%	/	/	/	1.9%
COc1ccc(S(=O)(=O)N2CCCC(C(=O)NCCC3=CCCCC3)C2)cc1 (centres undefined)	-2%	i	6.3e-09	i	-0.8%
Cc1ccccc1N1C(=O)c2sc3nc4c(c(=O)n3c2C1=O)CCC4	8%	/	/	/	2.4%
O=C(CCC1COc2ccccc2O1)NCc1ccco1 (centres undefined)	4%	i	1e-09	i	0.8%
O=C(O)c1c2c(c(O)c3c1CN(C1CCCCC1)CO3)OCN(C1CCCCC1)C2	1%[11.4 µM]	i	1.3e-08	i	2.7%[11.5 µM]
COCCCNC(=O)c1ccc2c(=O)n(C3CCCC3)c(=S)[nH]c2c1	?	i	1.6e-09	i	-3.1%
O=C(CCn1nnc2ccccc21)Nc1nnc(Cc2ccc(F)cc2)s1	8%	i	1.3e-08	i	-0.9%
Cc1noc(C)c1COc1cccc(C(=O)OCC(=O)N2CC(=O)Nc3ccccc32)c1	?	i	9.8e-09	i	-0.8%
COC(=O)CSc1ncnc2c1sc1nc(-c3ccco3)c3c(c12)CC(C)(C)OC3	/	i	1e-09	i	/
O=C(NCC1CCCO1)C(C(=O)c1ccc(F)cc1)n1ccccc1=O (centres undefined)	-5%	i	5.9e-09	i	1.9%
Cc1onc(-c2ccccc2)c1C(=O)N1CCCSC1=Nc1ccccc1	?	i	1e-09	i	-0.9%
c1csc(Cn2nnnc2CN2CCN(c3nc4ccccc4s3)CC2)c1	/	i	1.4e-08	i	-0.9%
COCCNC(=O)C(c1ccc(C)o1)N(C(=O)c1snc(C(N)=O)c1N)c1cccc(C)c1 (centres undefined)	22%	i	1.2e-08	i	7.2%
CN(Cc1ccccc1)c1ncnc2ccc(Br)cc12	/	i	2.8e-08	i	/
C=CCn1c(CSc2nc3ccccc3s2)nnc1SCC(=O)NCCN1CCOCC1	?	/	/	/	1.0%
CC(=O)NCc1ccc(-c2csc(N)n2)s1	0%	i	4e-08	i	0.6%
CCCN(C(=O)CSc1nnc(-c2ccoc2C)n1N)C1CCS(=O)(=O)C1 (centres undefined)	-5%	i	1.1e-08	i	-1.1%
COCCNC(=O)c1cc2c(=O)n(C)c3ccccc3c2n1C	1%	/	/	/	0.4%
CCCCCn1c2nc3ccccc3nc2c2c(=O)n(CC3CCCO3)c(C)nc21 (centres undefined)	20%	i	1e-09	i	3.7%
NS(=O)(=O)c1ccc(CCNc2nc(CN3CCOCC3)nc3sc4c(c23)CCC4)cc1	-3%[11.4 µM]	i	3.3e-08	i	0.9%
Nc1nc(Nc2ccc(Cl)cc2Cl)nc(C(F)(F)F)n1	/	i	4.2e-09	i	0.0%
Cn1nnnc1SCC(=O)NCCCc1ccccc1	5%	i	2.7e-08	i	-1.5%
NC(=O)CSc1nc2scc(-c3ccco3)c2c(=O)n1-c1ccccc1	/	i	6.2e-09	i	0.0%
C=CCn1c(Cc2cccs2)nnc1SCC(=O)Nc1ccc(OC)cc1	7%	i	1.6e-08	i	-0.1%
COc1ccc(O[C@H]2C=C[C@@H](c3ccccc3)O[C@H]2CO/N=C(/C)CCC(=O)OC[C@@H]2O[C@H](c3ccccc3)C=C[C@@H]2Oc2ccc(OC)cc2)cc1	-2%[11.4 µM]	/	/	/	3.8%[11.5 µM]
Cc1ccc(N2CC(C(=O)NCCCn3ccnc3)CC2=O)cc1 (centres undefined)	-13%	i	1e-09	i	9.1%
O=C(Cc1cccs1)Nc1ccc(S(=O)(=O)Nc2ncccn2)cc1	3%[11.4 µM]	i	2.5e-08	i	1.0%
O=C(Nc1nccs1)C(NS(=O)(=O)c1ccc(Br)s1)c1ccccc1 (centres undefined)	?	i	3.4e-08	i	-1.1%
CCN1C(=O)c2ccc(C(=O)Nc3nccs3)cc2C1=O	/	i	4.7e-09	i	-2.0%
COC(=O)N1CCC2(CC1)CN(c1cccc(-c3ccccc3)c1)C2	3%	i	1e-09	i	3.1%
O=C(CN(C(=O)CNC(=O)c1ccco1)c1ccc2c(c1)OCO2)NC1CCCCC1	13%	i	3.8e-08	i	-2.7%
CCC(O)c1cc2c(cc1NC(=O)c1ccc(C)cc1)OCCO2 (centres undefined)	3%	i	1e-09	i	7.4%
C=CCn1c(=N)n(CC(=O)OC)c2ccccc21	16%	i	3.1e-08	i	1.6%
COc1ccccc1CNC(=O)Cn1nnc(-c2ccncc2)n1	3%	i	4.7e-09	i	0.8%
COc1ccc(N2C(=O)CCC(C(=O)N3CCCCC3)C2c2ccc(F)cc2)cc1 (centres undefined)	-5%	i	1e-09	i	2.6%
CC(C)CCn1c(SCC(=O)c2ccccc2)nc2c1c(=O)[nH]c(=O)n2C	0%	i	8.8e-09	i	-1.4%

An excerpt of these results, with values under each structure.
Values run as follows: TSHR ag, Resorufin fluor, A647 fluor, A488 fluor, AID923
> O=C(Nc1nccs1)C(NS(=O)(=O)c1ccc(Br)s1)c1ccccc1 (centres undefined)
 : ?, i, 3.4e-08, i, -1.1%
> CCN1C(=O)c2ccc(C(=O)Nc3nccs3)cc2C1=O
 : /, i, 4.7e-09, i, -2.0%

(list continues)
mol	TSHR ag	Resorufin fluor	A647 fluor	A488 fluor	AID923
CCCCn1c(=O)[nH]c(=O)c2c1nc(CN1C(=O)c3ccccc3S1(=O)=O)n2CCC	13%	i	5.7e-09	i	-1.5%
CN(C)c1oc(COc2ccc(F)cc2)nc1C#N	11%	i	2.3e-08	i	1.4%
CCN1CC=C2C(C#N)=C(N)C(C#N)(C#N)[C@H](c3cccc(OC)c3OC)[C@H]2C1	/	i	1e-09	?	/
CCOCCCNC(=O)c1ccc2c(c1)N(Cc1ccccc1)C(=O)CS2=O (centres undefined)	-1%	/	/	/	0.9%
COc1ccc(-c2nc(SC)n(S(=O)(=O)c3ccccc3)n2)cc1	/	i	2.8e-09	i	1.2%
CCn1cc(C(=O)Nc2nncs2)c(=O)c2cc(F)c(N3CCN(C(=O)c4ccco4)CC3)cc21	?	i	1.4e-09	i	0.6%
O=C1CC(c2cccs2)c2cc3c(cc2N1)OCCO3 (centres undefined)	19%	i	2.4e-08	i	-0.7%
Cc1ccc(-c2cn3c(=S)[nH]nc3s2)cc1	-1%	i	1e-09	i	0.9%
Cn1c([N+](=O)[O-])cnc1CN1CCN(CCO)CC1	1%[11.4 µM]	i	2.6e-08	i	3.2%[11.5 µM]
CCOC(=O)C1C(=O)CC(C)(O)C(C(=O)OCC)C1c1ccc(Br)cc1 (centres undefined)	?	/	/	/	-1.5%
COc1ccc(CN2CCN(c3ncccn3)CC2)c(OC)c1	13%[11.4 µM]	/	/	/	-1.1%
c1ccc(OCc2nnc3sc(C4COc5ccccc5O4)nn23)cc1 (centres undefined)	8%	/	/	/	-1.2%
COCC(=O)N1CCC2(CCCN(Cc3ccc(C#N)cc3)C2)CC1	0%	i	1e-09	i	2.0%
COC(=O)[C@@]1(Cc2ccc(OC)cc2)[C@H]2c3cc(C(=O)N(C)C)n(C[C@H](O)CO)c3C[C@H]2CN1C(=O)c1ccccc1	?	/	/	/	2.8%
O=C(O)CN1C(=O)CNC1=O	/	i	2.1e-08	i	-1.1%
O=C(CSc1nnc(-c2ccco2)o1)NC1CCCCCC1	0%	i	5.3e-09	i	-0.4%
CN(C)C(=O)c1ccc(-c2cncnc2NCc2ccccc2)cc1	10%	i	3.8e-08	i	1.7%
NC(N)=Nc1nc2ccc([N+](=O)[O-])cc2[nH]1	-9%[11.4 µM]	i	1e-09	i	-4.4%[11.5 µM]
O/N=C1/CCSc2ccccc21	5%	i	1e-09	i	0.8%
COC(=O)N1CCC2(CCN(Cc3ccccc3)CC2)CC1	4%	i	1e-09	i	2.5%
CC(c1ccccc1)N1C(=O)CC(Sc2ncccc2C(=O)O)C1=O (centres undefined)	?	i	5.8e-08	i	-0.3%
COc1ccc(-c2cnc(SCC(=O)Nc3ccc4c(c3)OCO4)n2Cc2ccco2)cc1	?	i	7.8e-09	i	0.5%
O=C(CCN1CCN(c2ccccc2F)CC1)Nc1ccc2c(c1)OCO2	7%	i	1.7e-08	i	-0.2%
Cn1c(=O)oc2cc(S(=O)(=O)N3CCCC(C(=O)NCCN4CCOCC4)C3)ccc21 (centres undefined)	3%	/	/	/	0.9%
O=C(N/N=C1/C[C@@H](O)[C@@H](O)[C@@H]2[C@@H]3C(=O)N(C[C@@H]4CCCO4)C(=O)[C@H]3CC[C@H]12)OCc1ccccc1	-3%[11.4 µM]	/	/	/	-2.7%[11.5 µM]
c1cncc(-c2nc(NCc3cccs3)c3ccccc3n2)c1	32µM*	i	1e-09	i	-0.7%
O=C(CSc1oc(-c2ccco2)nc1S(=O)(=O)c1ccc(F)cc1)NCC1CCCO1 (centres undefined)	-4%[11.4 µM]	i	1.9e-08	i	6.7%
C=CCn1c(=O)[nH]c2cc(C(=O)N3CCN(c4ccc(C(C)=O)cc4)CC3)ccc2c1=O	11%	i	1.1e-09	i	2.9%

Single records (already shown). Order of values: TSHR ag, Resorufin fluor, A647 fluor, A488 fluor, AID923
c1cncc(-c2nc(NCc3cccs3)c3ccccc3n2)c1 as listed: 32µM*, i, 1e-09, i, -0.7%
O=C(CCN1CCN(c2ccccc2F)CC1)Nc1ccc2c(c1)OCO2 as listed: 7%, i, 1.7e-08, i, -0.2%
C=CCn1c(=O)[nH]c2cc(C(=O)N3CCN(c4ccc(C(C)=O)cc4)CC3)ccc2c1=O as listed: 11%, i, 1.1e-09, i, 2.9%

These rows are one share of the data, so the mix of outcomes need not match the whole.
